TRPV1 potentiator: HTS Assay for Compounds that Act as Potentiators of the Vanilloid Receptor 1 | Transient receptor potential cation channel subfamily V member 1 (Homo sapiens), Q8NER1 | TRPV1-expressing cells, Fluo-8 calcium influx, capsaicin EC20 potentiation; host cell line not named in the record; control for the full effect not named in the record | potentiation, % at 8.33 µM | actives 0.02% (n = 320,000) | AID 540277, 2011; active means potentiation above 80%; inconclusive means 30% to 80%; inactive means below 30%; further: 0% is about no effect
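TRPV1-expressing cells were cultured overnight at 35.5C and loaded with Fluo-8 calcium dye for 40 to 90 min at room temperature. After a 10 s baseline, compound was added and calcium influx was read kinetically for 3 min (ex 480/em 520 nm).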
D2 potentiator: Beta-Arrestin HTS for Positive Allosteric Modulators of the Human D2 Dopamine Receptor: Potentiators; D(2) dopamine receptor (Homo sapiens), P14416; DiscoveRx D2 beta-arrestin cells, luminescence, 90 min; 100% = 57 uM dopamine signal; potentiation, % (test concentration not listed); actives 0.23% (n = 360,000); active = potentiation of 50% or more; inconclusive = 30% to 50%; inactive = 30% or less;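 further: compound concentration not given in the record; tested on top of an EC20 dose of dopamine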
Target sequence (P14416 whole entry, looked up): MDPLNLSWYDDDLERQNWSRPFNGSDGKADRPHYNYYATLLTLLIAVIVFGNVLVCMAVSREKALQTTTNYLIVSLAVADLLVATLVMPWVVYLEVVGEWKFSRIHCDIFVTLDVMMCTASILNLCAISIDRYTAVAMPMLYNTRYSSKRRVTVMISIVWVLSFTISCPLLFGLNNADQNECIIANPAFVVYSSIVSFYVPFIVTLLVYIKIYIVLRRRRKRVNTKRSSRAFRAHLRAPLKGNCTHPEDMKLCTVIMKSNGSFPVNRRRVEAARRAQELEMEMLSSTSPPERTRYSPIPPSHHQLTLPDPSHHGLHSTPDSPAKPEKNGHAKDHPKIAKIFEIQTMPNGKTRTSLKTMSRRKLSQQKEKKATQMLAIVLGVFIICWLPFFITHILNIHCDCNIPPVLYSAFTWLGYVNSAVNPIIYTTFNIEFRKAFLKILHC
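D2 cells co-treated with compound plus 50 nM dopamine (EC20) for 90 min at 37 deg C to detect potentiation. Beta-arrestin recruitment was read as enzyme-fragment luminescence after 1 h at ambient temperature. Full response was set by 57 uM dopamine.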
ClpP mod: qHTS Assay for Activators of ClpP; purified B. subtilis ClpP, FRET peptide cleavage, 20 min; ATP-dependent Clp protease proteolytic subunit (Bacillus subtilis (strain 168)), P80244; actives 1.9% (n = 340,000); Potency, µM (top dose mostly 57.5 µM), without a hit: at the top dose activity change, negative = active; AID 651965, 2013; active = well fitted falling curve with a large enough effect; inconclusive = small, poorly fitted or top-dose-only effect; inactive = no such curve, though single readings can be large or run the other way; further: potency means the concentration at half of the fitted maximal effect; the source files actives as falling curves though it sought activators and does not explain the sign; nearly all actives have a fitted effect of over 65% in size; many hits overshoot -100%
Target sequence (P80244 whole entry, looked up): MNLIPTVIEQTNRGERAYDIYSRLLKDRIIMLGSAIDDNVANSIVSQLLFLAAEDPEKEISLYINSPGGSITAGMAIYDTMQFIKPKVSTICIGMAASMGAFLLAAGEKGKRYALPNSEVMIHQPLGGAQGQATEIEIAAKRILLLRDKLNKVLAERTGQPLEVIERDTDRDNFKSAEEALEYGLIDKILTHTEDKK
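Buffer: 100 mM Tris/HCl pH8, 100 mM KCl, 0.05% low protease BSA, 2.5% glycerol, 0.01% Tween-20. ClpP 10 microg/mL final; 20 min RT; delta FRET normalized to ADEP and DMSO controls.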
Menin MLL FP FL: qHTS Assay for Inhibitors Targeting the Menin-MLL Interaction in MLL Related Leukemias: Competition With Fluorescein Labeled MLL-derived Peptide; 290,000 tested, under 10 active; FP activity change, % at 61.4 µM; Fluorescence polarization, fluorescein-MLL peptide displacement from menin; inconclusive = falling polarisation curve, or a change in total fluorescence; inactive = total fluorescence flat and polarisation flat or rising; no compound was filed as active; the % refers to the polarisation; negative = inhibition;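 further: % of control where 0% means no effect; inhibitors lower the polarisation; unlabelled MLL peptide was the positive control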
Sfp PPTase inh: qHTS Assay for Inhibitors of Bacillus subtilis Sfp phosphopantetheinyl transferase (PPTase); actives 3.5% (n = 310,000); Potency, µM, for inactives: max response, negative = inhibition, usual class: inhibitors; 4'-phosphopantetheinyl transferase ffp (Bacillus subtilis), Q9F4F7; Biochemical Sfp PPTase activity, qHTS; active means well fitted inhibition curve with a large enough effect; inconclusive means small, poorly fitted or top-dose-only effect, or another doubt; inactive means no such curve, though single readings can be large or run the other way;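 further: the enzyme is Sfp with the accession as filed and its product quenches rhodamine fluorescence; potency means the concentration at half of the fitted maximal effect; 0% = enzyme reaction without inhibitor and -100% = no enzyme wells; top concentration of the series not given in the record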
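Reaction rates are the 30-min fluorescence difference (ex 525, em 598 nm) in wells containing 15 nM Sfp, 5 uM rhodamine-CoA and 12.5 uM BHQ-2-YbbR at pH 7.6 with 10 mM MgCl2.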
gsp ag: qHTS for Agonist of gsp, the Etiologic Mutation Responsible for Fibrous Dysplasia/McCune-Albright Syndrome: qHTS; gsp mutant cells, cAMP HTRF, 30 min; control for the full effect not named in the record; actives 0.13% (n = 340,000); AID 624287, 2012; Potency, µM (doses to about 76.9 µM), for inactives: top-dose activation (cAMP increase), actives largely listed as activators; active = well fitted activation curve with a large enough effect; inconclusive = small, poorly fitted or top-dose-only effect, or another doubt; inactive = no such curve, though single readings can be large or run the other way; cell line not stated here;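 further: phosphodiesterase inhibitor Ro 20-1724 added with compounds to block cAMP breakdown; potency means the concentration at half of the fitted maximal effect; nearly all actives have a fitted effect of over 60% in size; about a fifth of the inactives were tested at one dose only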
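Cells stably selected in G418 were plated at 2000/well, grown 16-24 hr, then given compounds in DMSO with the PDE inhibitor […] (300 uM solution added) for 30 min at 37C; cAMP was read by HTRF.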
gsp antagonist: qHTS for Antagonists of gsp, the Etiologic Mutation Responsible for Fibrous Dysplasia/McCune-Albright Syndrome: qHTS; Potency, µM (top dose mostly 76.9 µM), inactives show top-dose activity change, negative = inhibition, usual class: inhibitors; actives 0.4% (n = 340,000); AID 624288, 2012; gsp-mutant cells, cAMP HTRF, 30 min; control for the full effect not named in the record; active = falling curve of any shape with a large fitted effect; inconclusive = falling curve, mostly with a smaller effect; inactive = flat or rising curve; cell line not stated here;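 further: intracellular cAMP measured with PDE inhibitor Ro 20-1724 present during compound exposure; potency means the concentration at half of the fitted maximal effect; on the % scale 0 is the no-effect control and ±100 the full control effect; nearly all actives have a fitted effect of over 65% in size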
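G418-selected cells were plated in DMEM/10% FBS for 16-24 h at 37C, then treated with compounds plus the PDE inhibitor […] (300 uM solution added) for 30 min at 37C. Intracellular cAMP was measured by HTRF after 30 min lysis at room temperature.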
Starred values were filed as active, the others as inactive; ? = inconclusive; / = no result given; & = joins results of further samples; [ ] = remark or other dose.

SMILES | TRPV1 potentiator | D2 potentiator | ClpP mod | Menin MLL FP FL | Sfp PPTase inh | gsp ag | gsp antagonist
O=S(=O)(c1ccc2c(c1)OCCO2)N1CCN(c2ncnc3sccc23)CC1 | -5 | -3 | / | -3.6 | 16% | ? | -10%
Cc1cc(C)c(NC(=O)C2CCCN2CCO)c(C)c1 (stereo not given) | ? | -12 | 0.3% | 0.2 | 1% | ? | 16%
Cc1ccccc1CSCCNC(=O)c1ccc(Cl)c(S(=O)(=O)N2CCOCC2)c1 | -10 | -12 | -0.4% | -0.1 | 8% | -3% | -12%
CCC(C)Oc1nc2c(c(=O)n(C)c(=O)n2C)n1C (stereo not given) | -3 | 1 | / | -0.7 | 22% | ? | 4%
COc1ccc(C(=O)N2CCSC2=S)cc1OC | -1 | -8 | -1.7% | 1.4 | -23% | -4% | -6%
CSc1nsc(SCC(=O)Nc2ccc(C(C)=O)cc2)n1 | 14 | -8 | 0.0% | -0.3 | -2% | -37% | 4%
O=C(CSc1nc(-c2ccco2)cc(C(F)(F)F)n1)NCCCN1CCOCC1 | 0 | -9 | -1.1% | -1.1 | 19% | -1%[15.4 µM] | 4%
Cc1ccccc1OCc1nc2ccccc2c(=O)n1/N=C/c1cn[nH]c1-c1ccc(Br)cc1 | -3 | 1 | 24% | / | 12% | 0% | 2%
Cc1cc(C(=O)N/N=C/C=C/c2cccc([N+](=O)[O-])c2)n[nH]1 | -1 | 6 | 2.7% | 1.9 | 8% | ? | -22%
S=C(NC1CCCCC1)N1CCOCCOCCN(C(=S)NC2CCCCC2)CCOCCOCC1 | -15 | -25 | -1.2% | -0.7 | 8% | -12%[15.4 µM] | -28%
Cc1ccc(S(=O)(=O)CCC(=O)O)cc1C | 11 | -5 | -0.6% | 1.4 | 12% | -13% | 9%
OCC1(CCc2ccccc2)CCCN(C/C=C/c2ccccc2)C1 (stereo not given) | ? | -21 | / | -0.6 | 19% | -31% | 1%

Single records, from the list above. Values in the order: TRPV1 potentiator | D2 potentiator | ClpP mod | Menin MLL FP FL | Sfp PPTase inh | gsp ag | gsp antagonist
Listed for `CSc1nsc(SCC(=O)Nc2ccc(C(C)=O)cc2)n1` = 14 | -8 | 0.0% | -0.3 | -2% | -37% | 4%
Listed for `S=C(NC1CCCCC1)N1CCOCCOCCN(C(=S)NC2CCCCC2)CCOCCOCC1` = -15 | -25 | -1.2% | -0.7 | 8% | -12%[15.4 µM] | -28%

Further results
SMILES | TRPV1 potentiator | D2 potentiator | ClpP mod | Menin MLL FP FL | Sfp PPTase inh | gsp ag | gsp antagonist
Cc1ccc(C)c(N2N=C(C(=O)NCCN3C(=O)S/C(=C\c4cccnc4)C3=O)CCC2=O)c1 | 14 | -1 | / | / | / | 12%[15.4 µM] | -4%
CC(Oc1ccccc1)C(=O)Nc1ccc(S(=O)(=O)N2CCOCC2)cc1 (stereo not given) | -14 | -11 | -1.9% | 1.4 | 10% | -6% | 3%
Cc1nn(-c2ccc(C(=O)O)cc2)c(C)c1Oc1ccccc1O | -4 | 0 | -0.6% | -1.3 | 11% | -54%[inhibitor] | -16%
Cc1ccc2cc(CN(CCN3CCCC3)C(=O)Nc3ccc(F)cc3)c(=O)[nH]c2c1C | 21 | -40 | -14% | 5.2 | 15% | -2% | -6%
Cn1c(N)c(C(=O)COC(=O)CCc2nc3ccccc3s2)c(=O)n(C)c1=O | 9 | -24 | / | -2.6 | 11% | 3%[15.4 µM] | /
CC1=CN2C(=N)/C(=C/c3ccco3)C(=O)N=C2S1 | -12 | -22 | 0.6% | / | 0% | -38% | -11%
C=CCC[C@@H](Cc1ccc(F)cc1)C(=O)O[C@H](CNC(=O)[C@@H](CC=C)CC(=O)N[C@H](CO)Cc1ccccc1)c1ccccc1 | / | 4 | 1.6% | / | / | / | 0%
O=C(NN1CCOCC1)c1cc(S(=O)(=O)Nc2cccc(C(F)(F)F)c2)ccc1Cl | 7 | 2 | / | 2.8 | 20% | -4% | 5%
O=C(NCCC1CCCCN1S(=O)(=O)c1cccs1)C(=O)NCc1ccccc1 (stereo not given) | -13 | 17 | 1.5% | / | / | -29% | -12%
NS(=O)(=O)c1cc(C(=O)OCCNC(=O)c2ccccc2)c(Cl)cc1Cl | / | -3 | / | / | / | -2%[15.4 µM] | -4%
COC(=O)[C@]1(CC(C)C)N[C@H](c2ccc(-c3ccc4c(c3)OCO4)cc2)[C@@H]2C(=O)N(C)C(=O)[C@@H]21 | -20 | 4 | -22% | / | / | / | 13%
O=C(NCc1ccco1)c1ccc(NS(=O)(=O)c2cccc(F)c2)cc1 | 0 | -5 | -2.0% | -7.7 | 13% | 2% | -3%
COC(=O)N/N=C/c1cn(Cc2ccc(Cl)cc2Cl)c2ccccc12 | 8 | 2 | -6.4% | / | 9% | 15% | -17%
COc1ccc(N2CCOCC2)c(NC(=O)COc2cccc(C)c2C)c1 | -12 | -14 | -1.0% | / | 9% | -62%[inhibitor] | ?
COc1ccc(S(=O)(=O)N2CCOCC2)cc1NC(=O)CN1CCCc2ccccc21 | / | -6 | / | / | / | ? | 6%
O=C(N/N=C/c1ccc(OC(F)F)cc1OC(F)F)c1cccc(S(=O)(=O)N2CCOCC2)c1 | 1 | 2 | -1.0% | -1.2 | 15% | -5%[15.4 µM] | -14%
Cc1ccc(OCC(=O)Nc2ccc3c(c2)nc(CCN2CCCCC2)n3C)cc1 | 26 | -22 | -2.3% | -0.9 | 6% | 6% | 1%
COc1cccc(NS(=O)(=O)c2ccc3c(c2)CC(=O)N3)c1 | -11 | 0 | 1.1% | / | / | 19% | 22%
COc1cccc(N2CCN(CC(=O)NC(=O)NCc3ccco3)CC2)c1 | 20 | -3 | / | -4.9 | -7% | -3%[15.4 µM] | 9%
CCOC(=O)N1CCN(C(=O)CSc2nnc(-c3cc(OC)ccc3OC)o2)CC1 | -40 | -15 | -11% | 0.9 | 7% | -31%[inhibitor] | -19%
COc1cccc(N/C(N)=N/c2nc(C)cc(=O)[nH]2)c1 | 15 | ? | 0.9% | -0.3 | -5% | -11% | -1%
CCOC(=O)C1=C(C)NC2=C(C1c1ccc([N+](=O)[O-])cc1)S(=O)(=O)c1ccccc12 (stereo not given) | -4 | -4 | 1.1% | 3.8 | ? | 12% | -10%
O=C(CSc1nnc(COc2ccccc2)n1Cc1ccco1)c1ccc(F)cc1 | 6 | -3 | -4.1% | 12 | 56µM* | 4% | -16%
COc1ccc(S(=O)(=O)NC2CC(C)(C)NC(C)(C)C2)cc1 | 10 | -6 | 1.7% | / | 14% | -12% | 9%
COCC(=O)NCc1ccc2c(c1)cc(C)n2C | 6 | -6 | / | -18 | 11% | 1%[15.4 µM] | 10%
COC(=O)Cn1c2ccc(OC)cc2c2nc(C)sc21 | / | -12 | / | 2.3 | -3% | 13%[15.4 µM] | -4%
COc1cc2c(cc1OC)C(c1cccc(Cl)c1)CC(=O)N2 (stereo not given) | -12 | -6 | 0.5%&-0.4% | 2.5 | -3% | -1%[15.4 µM] | -9%
CCSc1nnc(NS(=O)(=O)c2ccc(C)cc2)s1 | 1 | -4 | 0.6% | 2.4 | 20% | -34%[inhibitor] | ?
Cc1ccc(OCC(=O)c2c(O)c3ccccc3oc2=O)cc1C | 26 | -6 | -10% | 0.3 | 8% | ? | 0%
Cc1ccc(OC(C)C(=O)O)cc1C (stereo not given) | -13 | -13 | -1.0% | 0.9 | 6% | -1% | 11%
COc1cccc(C(=O)Nc2cc(S(=O)(=O)N3CCCCC3)ccc2OC)c1 | -4 | 6 | / | -3.9 | 2% | 16% | -26%
CC(C)CNC(=O)COC(=O)c1ccccc1OCC(=O)Nc1ccc(Br)cc1 | -5 | 5 | -1.3% | 5.8 | 9% | 3% | 8%
O=C(c1ccc(Br)o1)N(Cc1ccccc1)Cc1ccccc1 | -13 | -6 | 1.0% | 1.9&2.0 | -28%&-10% | / | -11%
c1ccc(C2=Nn3c(nnc3-c3cc(-c4ccccc4)n[nH]3)SC2)cc1 | 0 | 6 | 0.8% | 1.8 | -23% | -2% | -12%
CCCC(=O)Nc1c2c(nc3ccccc13)N(c1ccccc1)CC2 | 2 | -8 | / | 1.9 | 28% | 4%[15.4 µM] | 9%
Cc1[nH]c(=O)[nH]c(=O)c1CSc1nnc([C@@H](NC(=O)OC(C)(C)C)C(C)C)o1 | 2 | -11 | -9.8% | 0.1 | -3% | -4% | 8%
CN(C)c1ccc(P(=O)(OCc2ccccc2)C(O)c2ccncc2)cc1 (stereo not given) | 27 | -17 | -3.6% | -0.7 | 12% | 21% | 3%
CC(NC(=O)/C(C#N)=C/c1cn(-c2ccccc2)nc1-c1ccc(F)cc1)c1ccccc1 (stereo not given) | 9 | -11 | -7.2% | 2.4 | 11% | ? | -3%
O=C(Cn1nnc2ccccc2c1=O)N[C@@H](Cc1ccccc1)C(=O)O | ? | -3 | -1.3% | 1.8 | -9% | -38%[inhibitor] | 7%
COc1cccc(N/C(SCc2cccc([N+](=O)[O-])c2)=C(/C#N)C(N)=O)c1 | 7 | -15 | -0.2% | 1.1 | -2% | 12%[15.4 µM] | -12%
O=C(NCCNC(=O)c1cnccn1)c1cccc(Cl)c1 | -1 | -2 | / | ? | 15% | ? | 5%
CN1CCC(OC(=O)c2cccc(Br)c2)CC1 | -13 | -16 | 1.6% | -5.6 | -2% | -23% | 2%
O=C(NC1CCCC1)C(=O)N(Cc1cccnc1)C(C(=O)NC1CCCC1)c1ccco1 (stereo not given) | 8 | -5 | 1.6% | -1.2 | -10% | 1% | 13%
Nc1nc(SCC(=O)N2CCCc3ccccc32)n[nH]1 | / | -5 | -1.8% | / | / | 18% | 2%

Screening results: PubChem, National Center for Advancing Translational Sciences (NCATS)
